# Source: PubChem BioAssay (several laboratories)
# Rad51 HR inh – blocks human Rad51 in homologous recombination; hRad51 DNA strand exchange, fluorescence dequenching; inhibition, % at 10 µM; actives 0.085% (n = 200,000);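 active means inhibition above 40% at the single screening dose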;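 further: 0% = DMSO control wells and 100% = blanks with heterologous ssDNA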
#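 Read-out basis: percent inhibition relative to plate controls and blanks / Assay system: human Rad51 nucleoprotein filaments preassembled on unlabelled ssDNA / Timing: filaments 15 min 37 °C, then compound 30 min / Control set: per-plate controls and blanks / Technique: fluorescence dequenching at 485/520 nm / Compound: 10 µM final, single point / Also added: Fluorescein- and BHQ1-tagged 47-mer duplex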
# PERK inh – human PERK inhibition, primary cell-based screen; actives 0.17% (n = 220,000); AID 1416; Q9NZJ5; inhibition, % at 5.6 µM; CHO PERK-DD fusion, SEAP luminescence translation reporter;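 active means inhibition above the mean inhibition of all tested compounds plus 3 SD, set separately per screening campaign, cut at about 2.9% in these data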;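 further: PERK kinase domain activated by AP20187 dimerizer at 100 nM; 0% = DMSO with dimerizer and 100% = rapamycin at 8.4 µM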
# KCC2 mod – modulates chloride dependent transport by human KCC2 | Q9H2X9 | KCC2 cells, thallium flux FluoZin-2 fluorescence | B-score of Tl+ flux slope (higher = more flux/activation; lower = inhibition) at 10 µM | actives 2.2% (n = 190,000);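 active means thallium flux slope and its plate-corrected score both differing from the plate sample mean at a set confidence after two filtering rounds, in either direction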;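 further: slope of fluorescence scaled to starting intensity during 10 to 20 s after thallium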
# Target sequence (Q9H2X9 whole entry, looked up): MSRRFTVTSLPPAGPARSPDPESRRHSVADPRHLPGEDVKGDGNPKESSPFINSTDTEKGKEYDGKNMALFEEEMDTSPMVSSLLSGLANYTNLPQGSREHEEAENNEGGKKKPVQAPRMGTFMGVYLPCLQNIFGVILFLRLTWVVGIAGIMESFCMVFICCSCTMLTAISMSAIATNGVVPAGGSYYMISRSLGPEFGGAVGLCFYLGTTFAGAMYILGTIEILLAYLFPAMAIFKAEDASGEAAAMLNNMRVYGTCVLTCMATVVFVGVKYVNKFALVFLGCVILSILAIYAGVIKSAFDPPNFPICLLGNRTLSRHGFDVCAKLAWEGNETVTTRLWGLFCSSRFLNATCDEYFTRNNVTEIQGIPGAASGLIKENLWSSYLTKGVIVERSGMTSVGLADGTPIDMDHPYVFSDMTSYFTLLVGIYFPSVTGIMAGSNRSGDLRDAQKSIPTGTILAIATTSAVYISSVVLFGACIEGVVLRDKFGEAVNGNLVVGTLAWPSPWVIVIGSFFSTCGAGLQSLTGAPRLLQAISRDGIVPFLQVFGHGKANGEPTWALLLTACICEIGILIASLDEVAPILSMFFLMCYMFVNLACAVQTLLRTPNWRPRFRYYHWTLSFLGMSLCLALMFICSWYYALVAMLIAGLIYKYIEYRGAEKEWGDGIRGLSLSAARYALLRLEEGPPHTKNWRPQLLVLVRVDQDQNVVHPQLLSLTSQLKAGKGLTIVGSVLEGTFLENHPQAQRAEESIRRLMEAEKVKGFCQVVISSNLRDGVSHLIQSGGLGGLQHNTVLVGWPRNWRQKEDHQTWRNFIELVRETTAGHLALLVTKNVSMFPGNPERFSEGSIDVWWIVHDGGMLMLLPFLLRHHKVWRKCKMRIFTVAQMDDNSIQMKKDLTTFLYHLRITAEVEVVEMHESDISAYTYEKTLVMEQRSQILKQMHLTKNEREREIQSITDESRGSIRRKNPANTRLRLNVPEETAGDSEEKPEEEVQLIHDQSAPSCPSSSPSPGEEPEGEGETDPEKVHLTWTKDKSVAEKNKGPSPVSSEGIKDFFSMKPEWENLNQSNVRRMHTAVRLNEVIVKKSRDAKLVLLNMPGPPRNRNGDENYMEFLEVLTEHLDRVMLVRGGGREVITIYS
# Furin inh – human furin inhibition. P09958. purified furin, fluorogenic substrate cleavage. inhibition, % at 30 µM. actives 0.061% (n = 220,000). AID 463115; in the data active means inhibition above about 25%; further: inactives centre near -15
# FXIIa inh 1536 – factor XIIa (human) inhibition. purified FXIIa, Boc-QGR-AMC fluorogenic substrate, 2 h. inhibition, % at 5 µM. actives 0.3% (n = 220,000); in the data active means inhibition above about 40%;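 further: 0% = enzyme with no compound and 100% = blank without enzyme; many of its hits are not listed in these tables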
# Calpain2 inh – inhibitors of pig calpain II | purified calpain II, fluorogenic peptide substrate, 30 min | AID 1236 | actives 0.37% (n = 220,000) | inhibition, % at 16 µM;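 active means inhibition above about 50%, limit read from the data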
# Thrombin inh – blocks human thrombin protease activity; P00734; alpha-thrombin, Boc-VPR-AMC fluorogenic substrate cleavage; inhibition, % at 5 µM; actives 0.26% (n = 220,000);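 active means inhibition at or above 40%; inactive means inhibition below 40%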;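 further: 0% = enzyme with no compound and 100% = wells without enzyme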
#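 signal = AMC fluorescence, 355/460 nm | material = human alpha-thrombin enzyme | control set = enzyme without compound as high, wells lacking enzyme as low | times = reaction at room temperature | read-out basis = percent inhibition scaled between no-compound controls and no-enzyme blanks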
# FXIa inh – inhibitors of human coagulation factor XIa | inhibition, % at 5 µM | actives 0.14% (n = 220,000) | AID 798 | purified FXIa, Boc-Glu-Ala-Arg-AMC fluorogenic substrate;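 active means inhibition of at least 40%; inactive means inhibition below 40%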;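 further: fluorescence of freed AMC excited at 355 nm; 0% = enzyme without compound and 100% = no enzyme blank; many of its hits are not listed in these tables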
# Starred values were filed as active, the others as inactive; i = inactive; x = not tested or not shown; [ ] = another dose, or the depositor's remark. An excerpt; count on the stated rates, not on these rows.
entry	mol	Rad51 HR inh	PERK inh	KCC2 mod	Furin inh	FXIIa inh 1536	Calpain2 inh	Thrombin inh	FXIa inh
1	CC1(C)CC[C@]2(C(=O)O)CC[C@]3(C)C(=CC[C@@H]4[C@@]5(C)CC[C@H](O)C(C)(C)[C@@H]5CC[C@]43C)[C@@H]2C1	6	x	1.1	-34	8	-52	1	2
2	CCOc1cc(C2C(C(=O)OC(C)C)=C(C)N=C3SCCC(=O)N32)ccc1OC(C)=O (stereo unspecified)	-1	1.0	x	-10[20 µM]	13	14	-6	6
3	CC(/C=C/c1ccc2c(c1)OCO2)=N/NC(=O)COc1ccc(C)cc1	-6	-0.4	0.45	-17	1	-16	10	-5
4	COc1cc(OC)c(OC)cc1CN(C)C(c1ccccc1)c1nnnn1-c1ccccc1C (stereo unspecified)	-11	-0.8	-0.93	-20	-3	15	-9	-6
5	Cc1noc(C(=O)Nc2cccc(O)c2)c1Cl	18	0.1	0.3	-17	10	-14	1	0
6	CC(C)(C)C1CCC2(CC1)C(C#N)=C(SCC(=O)Nc1ccccc1)NC(=O)C2C#N (stereo unspecified)	-10	-0.3	-2.1	-27	4	-20	4	4
7	CC1C(c2ccccc2)N(C)C(c2ccccc2)C(C)C1(O)C#Cc1ccccc1 (stereo unspecified)	x	0.5	0.89	-17	5	3	-11	0
8	COc1ccc(C(=O)OCC(=O)NC(C)(C)C)cc1[N+](=O)[O-]	2	0.6	0.79	-9	4	-7	-10	-3
9	CC(=O)Nc1ccc(S(=O)(=O)NCCN2CCOCC2)cc1	1	-0.5	0.26	-13	8	-11	-4	-2
10	Nc1ccc(Sc2ccccc2CC(=O)O)cc1	0	0.6	-0.12	-13[20 µM]	7	-41	1	-3
11	O=C(CSc1n[nH]c(-c2ccccc2O)n1)N1CCOCC1	x	0.9	x	-25	8	-27	-3	4
12	CCN(CC)S(=O)(=O)c1cc(NS(=O)(=O)c2cccc(Cl)c2)ccc1C	2	0.1	-1.5	-14	8	8	-8	5
13	COC(=O)c1ccc(CNC(=O)CSc2nc3sc(C)c(C)c3c(=O)n2C)o1	6	-0.1	-0.66	-6[20 µM]	18	-10	-6	5
14	COc1ccc(C2NC3=C(CCC3)C3(C#N)C(OC)(OC)N=C(N)C23C#N)cc1 (stereo unspecified)	-8	1.3	-0.26	-24	9	-10	-1	-7
15	O=C(CCCn1c(=S)[nH]c2cc3c(cc2c1=O)OCO3)N1CCN(c2ccc(Cl)cc2)CC1	-9	-0.5	1	-9	-8	-64	7	8
16	N#Cc1cc2c(nc1SCC(=O)O)CCCC2	8	-0.7	-0.6	-16[20 µM]	10	-16	-1	-4
17	COc1ccccc1CN1C[C@@H]2C[C@@H](c3ccc(C)c(C)c3)N3CCC[C@@]23C1=O	-3	-0.3	x	-2	4	-6	-10	-2
18	Cc1cc(C)nc(NS(=O)(=O)c2ccc(N3C(=O)C4C5C=CC(C5)C4C3=O)cc2)n1 (stereo unspecified)	8	0.7	0.9	-17	-3	-5	-10	-6
19	O=C(c1ccccn1)N1CC=C(c2ccccc2)CC1	2	0.9	1.2	-17	5	2	-18	-6
20	COC(=O)c1[nH]c2ccc(C)cc2c1NC(=O)CN1CCN(Cc2ccccc2)CC1	-4	-0.6	x	-32	17	-151	3	5
21	CCN(C(=O)CSc1nnc(Cc2cccc3ccccc23)n1N)C1CCS(=O)(=O)C1 (stereo unspecified)	-4	1.3	-0.59	-11[20 µM]	4	-16	1	4
22	COCC(C)n1c(C)cc(C(=O)CSc2ncccn2)c1C (stereo unspecified)	-5	-0.1	0.054	-17	0	-5	-23	-11
23	O=C(CSc1nc(-c2cccs2)cc(C(F)(F)F)n1)NCCCn1ccnc1	-3	-0.5	-0.14	-14[20 µM]	16	-4	5	11
24	Cc1ccc(Cn2c(SCC(=O)NCC3CCCO3)nc3c(sc4ccccc43)c2=O)cc1 (stereo unspecified)	x	0.1	0.4	-23[20 µM]	12	-22	0	1
25	CCN(CC)S(=O)(=O)c1cccc(C(=O)Nc2ccc(Cl)cn2)c1	-6	-1.1	0.019	-28	13	21	2	2
26	O=C(O)C(Cc1cc(Cl)ccc1Cl)Sc1nc2ccccc2[nH]1 (stereo unspecified)	10	1.2	0.86	-12	5	10	-5	0
27	CC(C)OCCCn1c(=S)[nH]c2ccc(N3CCOCC3)cc2c1=O	2	-0.6	2.3	-30	-1	i	-8	-6
28	CCC1CCCCN1C(=O)Cn1nc([N+](=O)[O-])c(Cl)c1C (stereo unspecified)	-12	0.0	0.2	-12	-1	10	-3	-6
29	CN(C)C(CNc1nnnn1-c1ccccc1)c1ccco1 (stereo unspecified)	-5	0.0	-0.73	-15[20 µM]	14	-57	-1	3
30	Cc1c(C2C(C#N)=C(N)N(c3cccc([N+](=O)[O-])c3)C3=C2C(=O)CCC3)cnn1C (stereo unspecified)	26	1.1	1	-12	9	-11	1	2
31	CC(C)CN(C(=O)COC(=O)c1cc2ccccc2oc1=O)C1CCS(=O)(=O)C1 (stereo unspecified)	-5	1.2	-0.35	-18	16	-51	0	3
32	O=C(O)COc1ccc(/C=C/c2nc3ccc([N+](=O)[O-])cc3s2)cc1	-16	1.7	-2.9	1	17	7	5	11
33	CC(/C=N/NC(=O)c1n[nH]c2c1CCC2)=C\c1ccccc1	3	-0.3	-0.62	-12[20 µM]	3	17	-2	1
34	CC(C)Sc1nc(O)c(Cc2ccccc2)c(=O)[nH]1	2	-0.8	x	-17[20 µM]	2	-16	-4	-7
35	Fc1ccc(N2CCN(Cc3ccccn3)CC2)cc1	3	0.1	-1.3	-26	2	-8	-5	1
36	Cc1cc2ncn(/N=C/c3ccc([N+](=O)[O-])s3)c2cc1C	-7	0.6	0.15	-12	10	-6	0	6
37	Cc1cccc(N/N=C(\C(N)=O)C2=NC(C)(C)Cc3ccccc32)c1	7	-0.2	0.019	4	21	17	-3	6
38	CCN=C1S/C(=C\c2ccc(N3CCOCC3)cc2C)C(=O)N1CC	-7	0.4	0.89	-12	18	-8	4	7
39	FC(F)(F)c1cc(-c2ccccc2)nc(N2CCOCC2)n1	-1	0.5	0.27	-21[20 µM]	-5	12	-5	-15
40	O=C(O)COc1ccc(/C=N/Nc2nc(Nc3ccccc3)nc(N3CCCCC3)n2)cc1	-48	1.0	0.0091	-23	0	-55	1	-5

# Sorted by the number under Furin inh (descending): some entries from above
nr	SMILES	Furin inh
38	CCN=C1S/C(=C\c2ccc(N3CCOCC3)cc2C)C(=O)N1CC	-12
22	COCC(C)n1c(C)cc(C(=O)CSc2ncccn2)c1C (stereo unspecified)	-17
25	CCN(CC)S(=O)(=O)c1cccc(C(=O)Nc2ccc(Cl)cn2)c1	-28

# Next entries.
entry	mol	Rad51 HR inh	PERK inh	KCC2 mod	Furin inh	FXIIa inh 1536	Calpain2 inh	Thrombin inh	FXIa inh
41	C=CCOc1ccc(C2NC(=S)NC(C)=C2C(=O)c2ccccc2)cc1OC (stereo unspecified)	4	0.0	-0.16	1	11	-6	-12	0
42	CCOc1ccc(Cl)cc1/C=N/O	11	1.5	x	-7	14	-50	-6	3
43	CCCCCCCC[n+]1c(C)n(-c2ccccc2)c2ccc(NC(C)=O)cc21	-2	0.9	0.29	-18	-1	-2	-10	-6
44	NCCOc1ccc(C2CCCCC2)cc1	2	0.7	0.45	-11	8	17	5	20
45	CS(=O)(=O)Nc1nc2n(n1)C(c1ccccc1)CC(c1ccccc1)N2 (stereo unspecified)	8	-0.6	-0.31	-8	-2	3	-3	-2
46	O=C(Nc1ccncc1)c1ccc(-c2ccccc2)cc1	2	0.9	-0.74	-6	4	-11	2	-5
47	Cc1cc(C(=O)COC(=O)c2ccc(O)cc2)c(C)n1Cc1ccco1	2	1.0	-0.069	-2	10	-14	1	4
48	NC(=O)CC(NC(=O)Cc1ccc(Br)cc1)c1ccc(NCCc2ccc(Cl)cc2)c([N+](=O)[O-])c1 (stereo unspecified)	-2	x	1	-18	9	15	2	4
49	CS(=O)(=O)n1nc(-c2ccccc2)nc1N	0	0.3	-1.1	-12[20 µM]	30	0	-3	18
50	Cc1ccc(-c2cc(C(=O)N3N=C(C(F)F)CC3(O)C(F)F)c3ccccc3n2)cc1C (stereo unspecified)	-3	-1.2	-0.35	-2[20 µM]	19	-247	-4	3
51	Cc1ccc2c(c1)c(Sc1ccccc1)c(CC(=O)O)n2C	-3	0.7	-1.9	-1	0	4	-12	-6
52	CCSc1ncccc1-c1nc2ccccc2[nH]1	-1	-0.1	0.66	-22[20 µM]	9	-43	0	-3
53	O=C1N(c2ccc3c(c2)OCCO3)C(c2ccccc2)C1(F)F (stereo unspecified)	8	-0.2	-1.1	-22	2	19	-6	-1
54	COc1ccc(Cl)cc1NC(=O)C1CCCN(c2cc(C)nc3ncnn23)C1 (stereo unspecified)	-1	-0.5	-2.2	4	6	-4	-6	0
55	CC(C)CC(=O)NC1(C(F)(F)F)C(=O)N(CC(C)C)C2=C1C(=O)CC(C)(C)C2 (stereo unspecified)	15	-0.5	0.59	9	-1	13	-13	-5
56	CC(=O)NCCOc1nc(N2CCCCC2)nc(N2CCCCC2)n1	-4	-0.2	-0.62	-8	5	-16	-11	-6
57	COc1ccc(OCC(=O)NNC(=O)c2ccccn2)cc1	x	2.2	0.49	-17	9	12	0	-18
58	COc1ccc(/C=C2\N=C(SC)SC2=O)cc1OC	7	0.6	0.29	-21[20 µM]	4	13	0	7
59	O=C(CCSCCc1ccncc1)NCCCN1CCOCC1	1	0.9	x	-21	29	6	0	9
60	COc1cc(CN2CCc3ccccc3C2)ccc1O	6	-0.6	0.029	-14	-2	-15	-9	-5
61	O=C(Cn1cccc1)NCc1cccs1	3	0.3	0.38	-20	15	-9	1	5
62	O=C1OC(/C=C/c2ccccc2)=NC/1=C/C=C/c1ccccc1	-7	0.6	0.11	0	10	-63	-3	17
63	O=C(Cn1cncn1)NCc1ccccc1Br	3	1.4	1.1	-11[20 µM]	-5	17	-7	-9

# An excerpt from above in order of formula weight, falling.
entry	mol	Rad51 HR inh	PERK inh	KCC2 mod	Furin inh	FXIIa inh 1536	Calpain2 inh	Thrombin inh	FXIa inh
1	CC1(C)CC[C@]2(C(=O)O)CC[C@]3(C)C(=CC[C@@H]4[C@@]5(C)CC[C@H](O)C(C)(C)[C@@H]5CC[C@]43C)[C@@H]2C1	6	x	1.1	-34	8	-52	1	2
41	C=CCOc1ccc(C2NC(=S)NC(C)=C2C(=O)c2ccccc2)cc1OC (stereo unspecified)	4	0.0	-0.16	1	11	-6	-12	0
45	CS(=O)(=O)Nc1nc2n(n1)C(c1ccccc1)CC(c1ccccc1)N2 (stereo unspecified)	8	-0.6	-0.31	-8	-2	3	-3	-2
26	O=C(O)C(Cc1cc(Cl)ccc1Cl)Sc1nc2ccccc2[nH]1 (stereo unspecified)	10	1.2	0.86	-12	5	10	-5	0
27	CC(C)OCCCn1c(=S)[nH]c2ccc(N3CCOCC3)cc2c1=O	2	-0.6	2.3	-30	-1	i	-8	-6
37	Cc1cccc(N/N=C(\C(N)=O)C2=NC(C)(C)Cc3ccccc32)c1	7	-0.2	0.019	4	21	17	-3	6
51	Cc1ccc2c(c1)c(Sc1ccccc1)c(CC(=O)O)n2C	-3	0.7	-1.9	-1	0	4	-12	-6
39	FC(F)(F)c1cc(-c2ccccc2)nc(N2CCOCC2)n1	-1	0.5	0.27	-21[20 µM]	-5	12	-5	-15
63	O=C(Cn1cncn1)NCc1ccccc1Br	3	1.4	1.1	-11[20 µM]	-5	17	-7	-9
5	Cc1noc(C(=O)Nc2cccc(O)c2)c1Cl	18	0.1	0.3	-17	10	-14	1	0
16	N#Cc1cc2c(nc1SCC(=O)O)CCCC2	8	-0.7	-0.6	-16[20 µM]	10	-16	-1	-4
61	O=C(Cn1cccc1)NCc1cccs1	3	0.3	0.38	-20	15	-9	1	5
